# Source: PubChem (several laboratories)
# MLL AF4-AF9 inh – blocks AF4 peptide binding to human AF9; P42568; AlphaScreen, biotin-AF4 peptide binding to FLAG-AF9; inhibition, % at 10 µM; AID 651704; 0.47% of 350,000 active;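 active means every replicate reaching a set inhibition limit, whatever the replicate mean, cut at about 25% in these data; inconclusive means mean inhibition reaches that limit but some replicates miss it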;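 further: 0% = plate neutral control median and 100% = total signal loss; the record names both 10 and 1 µM as test concentration; the first replicate is given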
# Target sequence (P42568 whole entry, looked up): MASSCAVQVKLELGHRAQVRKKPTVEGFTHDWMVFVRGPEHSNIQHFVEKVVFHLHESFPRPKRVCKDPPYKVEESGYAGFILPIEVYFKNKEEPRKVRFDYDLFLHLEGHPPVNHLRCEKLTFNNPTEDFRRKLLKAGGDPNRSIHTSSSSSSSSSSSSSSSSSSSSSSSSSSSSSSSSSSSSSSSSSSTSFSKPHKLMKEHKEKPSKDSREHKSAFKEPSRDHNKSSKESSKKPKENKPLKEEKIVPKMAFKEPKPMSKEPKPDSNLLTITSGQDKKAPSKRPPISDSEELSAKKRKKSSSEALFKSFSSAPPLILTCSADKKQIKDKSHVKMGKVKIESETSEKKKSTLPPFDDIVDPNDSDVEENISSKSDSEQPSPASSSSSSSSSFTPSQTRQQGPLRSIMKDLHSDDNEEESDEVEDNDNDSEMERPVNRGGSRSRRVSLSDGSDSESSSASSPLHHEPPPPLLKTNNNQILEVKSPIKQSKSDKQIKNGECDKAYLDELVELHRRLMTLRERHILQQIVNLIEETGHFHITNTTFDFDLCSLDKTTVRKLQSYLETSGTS
# Ecoli rRNA inh – inhibitors of bacterial rRNA selective over humanized ribosomes; E. coli WT GFP vs humanized-ribosome RFP mutants, fluorescence, 24 h; stronger effect = lower value; DMSO median 0, no signal -100; AID 720706; 1.6% of 350,000 active; GFP signal change (wild-type ribosome), % (no concentration beside the values);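 active means significant combined selectivity score with lowered wild-type GFP, culture density cut under 30%, mutant RFP and density less affected; inactive means any of these conditions unmet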; further: one replicate is shown; some compounds called inactive have numbers as strong as hits
# Ecoli growth – E. coli growth inhibition | 0.21% of 330,000 active | OD600 absorbance (no concentration beside the values) | Escherichia coli growth, OD600, 23 h; stronger effect = lower value;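 active means OD600 absorbance below the run mean of sample wells minus 3.6 SD, in any replicate, cut at about 0.56 in these data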;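 further: stock transfer was 300 nL into about 60 µL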
# ALR inh – inhibitors of human sulfhydryl oxidase ALR; P55789; purified ALR, DTT oxidation, H2O2 HRP-luminol luminescence; inhibition, % (no concentration beside the values); 3.8% of 290,000 active;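 active means mean and each replicate at 75% or more; inconclusive means only one of the two met; inactive means neither met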;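 further: stock transfer was 7.5 nL into about 7.5 µL; 0% = neutral wells and 100% = wells with inactivated enzyme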
# Target sequence (P55789 whole entry, looked up): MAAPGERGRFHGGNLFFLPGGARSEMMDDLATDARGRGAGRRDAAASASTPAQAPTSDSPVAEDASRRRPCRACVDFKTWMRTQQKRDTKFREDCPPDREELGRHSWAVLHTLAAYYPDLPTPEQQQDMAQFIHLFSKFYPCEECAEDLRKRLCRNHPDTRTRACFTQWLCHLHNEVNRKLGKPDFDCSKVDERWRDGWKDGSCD
# FGF22 binding – shifts melting point of recombinant human FGF22; recombinant FGF22 thermal shift, SYPRO orange fluorescence; percent of sucrose octasulfate shift, DMSO zero; calls only at 9.99 µM; 1.5% of 340,000 active; AID 651658;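 active means melting point raised past a set limit in the mean and every replicate; inconclusive means no clear call; three in four hits are not shown here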
# Target sequence (Q9HCT0 whole entry, looked up): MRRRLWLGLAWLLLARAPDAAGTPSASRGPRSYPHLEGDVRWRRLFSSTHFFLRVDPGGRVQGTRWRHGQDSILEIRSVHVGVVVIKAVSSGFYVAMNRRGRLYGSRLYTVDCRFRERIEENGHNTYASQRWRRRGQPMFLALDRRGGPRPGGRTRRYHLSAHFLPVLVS
# Vif A3G – HIV-1 Vif–A3G interaction blockers – biochemical, TR-FRET, GST-Vif 1-94, biotin-A3G peptide, dose response retest, primary screen (AID 1117319) | TR-FRET GST-Vif / biotin-A3G peptide binding; higher % means a stronger effect; test concentration not given here; strong numbers were not always called active | one-dose inhibition, %; IC50 in µM for titrated hits | 0.57% of 260,000 active;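 active means above the screen mean plus three standard deviations and confirmed in dose response; inconclusive means results disagree or hit not tested in dose response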;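 further: Vif residues 1-94 fused to GST binding biotinylated APOBEC3G peptide 110-148; 0% = full assay without inhibitor and 100% = GST in place of GST-Vif; retest series ran down from 100 µM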
# HNF4A DNA FP – change in binding of human HNF4 alpha to DNA. P41235. HNF4a-FITC DNA binding, fluorescence polarization, 1 h. activity change, % at 10 µM. 0.3% of 360,000 active; in the data active means activity change above about 30%, passing the limit was not always enough;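 further: controls were the assay level and a saturating level of protein; the project sought stronger binding though the title names inhibitors; some compounds called inactive have numbers as strong as hits; positive values seem to mean higher polarization but the record does not say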
# Ecoli rRNA inh OD600 – recorded beside Ecoli rRNA inh, whose call it bears; OD600 change, %; measured here: OD600 growth;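 optical density of the mix in the first replicate; 0 = DMSO median and -100 = no signal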
# Ecoli rRNA inh RFP – also measured in Ecoli rRNA inh; calls as there; RFP signal change, %; measured here: RFP humanized mutant strains;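 first replicate; 0 = DMSO median and -100 = no signal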
# * = called active by the depositor; i = inactive; u = inconclusive; x = not tested or not shown.
SMILES,MLL AF4-AF9 inh,Ecoli rRNA inh,Ecoli rRNA inh OD600,Ecoli rRNA inh RFP,Ecoli growth,ALR inh,FGF22 binding,Vif A3G,HNF4A DNA FP
Cn1c(=O)[nH]c(=O)c2c1nc(CN1CCN(c3cccc(Cl)c3)CC1)n2Cc1ccccc1Cl,8.4,4,7,0.0,0.74,-8,i,13%,-2.1
O=C(CNc1cc(S(=O)(=O)N2CCOCC2)ccc1N1CCCC1)Nc1ccc(Cl)cc1,8.0,x,x,x,0.71,x,i,x,5.8
O=C(NCCN=C1NS(=O)(=O)c2ccccc21)c1ccc2nccnc2c1,x,x,x,x,0.69,-1,x,11%,0.0
Cc1ccc(S(=O)(=O)Nc2ccc3c(c2)CC(=O)N([C@@H](C)CO)C[C@H](C)[C@@H](CN(C)C(=O)Nc2ccc(C(F)(F)F)cc2)O3)cc1,6.5,-2,-8,0.0,x,x,i,x,x
CCOC(=O)c1cc(/C(C)=N/OC(=O)c2ccc(C(C)(C)C)cc2)on1,0.3,11,2,2.1,x,-2,i,2%,-0.5
O=C(Cc1ccccn1)c1ccc(O)cc1O,-5.4,9,4,-0.3,0.68,2,i,6%,-3.5
Cn1ccc2c(-c3ccc4[nH]ccc4c3)cc3c(c21)C1CCC3O1 (centres undefined),6.3,0,3,2.3,x,x,x,x,5.6
CCN1CCN(C(c2cccs2)C(C)NS(=O)(=O)c2ccc(C)cc2)CC1 (centres undefined),0.2,8,1,0.2,0.7,-1,i,x,0.5
Cc1ccc(-n2ncc3c(SCC(N)=O)ncnc32)cc1C,-1.2,12,14,1.3,0.68,x,i,x,-0.7
CCCNS(=O)(=O)c1ccc(N2CCCC2=O)c([N+](=O)[O-])c1,x,x,x,x,0.61,-36,x,x,1.6
O=C(Cc1ccc(Br)cc1)Nc1ccc2[nH]ncc2c1,-2.6,4,-2,5.8,0.66,x,i,-9%,2.6
COc1ccccc1C(=O)NCCCNC(=O)c1cnccn1,-0.6,2,9,1.1,0.68,-4,i,x,-1.7
CN1C[C@@H](O)COC[C@@H]2O[C@@H](CC(=O)N3CCN(c4ccccc4)CC3)CC[C@H]21,0.0,-4,8,-0.6,x,x,i,x,x
Cc1ccc(-n2cc(-c3ccccc3)c3c(NN4CCOCC4)ncnc32)cc1,-11,-51,-78,-21,0.67,18,i,21%,-0.9
COC(=O)C1(C(C[N+](=O)[O-])c2ccco2)C(=O)NCC1c1ccccc1 (centres undefined),0.5,x,x,x,0.66,x,i,-10%,-0.5
CC(C)OC(=O)c1nnc(Cc2ccc(F)cc2)o1,12,9,9,-1.7,0.74,-4,i,u,1.5
Cc1cccc(S(=O)(=O)N2CCCCN3[C@@H](CO)[C@H](c4ccc(C#C[C@@H](C)O)cc4)[C@@H]3C2)c1,1.2,-3,7,-1.3,x,x,i,x,x
C(=N\Nc1nc(N2CCCC2)nc(N2CCCC2)n1)/c1ccncc1,1.4,17,13,1.2,x,-1,i,x,-0.3
CC(C)N1CCCC(C)(C(=O)Nc2cccc(Oc3ccccc3)c2)C1 (centres undefined),-9.4,8,21,1.4,x,x,i,x,1.2
O=C(CN1C(=O)C2CCCCC2C1=O)Nc1nccs1 (centres undefined),-1.5,10,5,-7.4,0.73,-86,i,12%,0.5
CCCc1cc(=O)oc2c(C)c(OCC(=O)NCCN3CCOCC3)ccc12,0.3,-3,2,-1.9,0.7,-2,i,-14%,-1.3
CC(C)CC1C(=O)N(Cc2cn(Cc3ccco3)nn2)CCS(=O)(=O)N1Cc1ccc(-c2ccc(F)cc2)cc1 (centres undefined),-0.5,-1,-4,8.6,x,x,i,3%,-1.2
Oc1c(C(c2ccccn2)N2CCC(Cc3ccccc3)CC2)cc(Cl)c2cccnc12 (centres undefined),45*,-49,-73,-16,0.72,-10,i,-4%,x
CO[C@@H]1CN(C)C(=O)c2cc(NC(C)=O)ccc2OC[C@H](C)N(C(=O)c2ccccc2)C[C@@H]1C,1.8,-1,2,-1.7,x,x,i,x,x

# As entered above:
# In Ecoli rRNA inh, CC(C)N1CCCC(C)(C(=O)Nc2cccc(Oc3ccccc3)c2)C1 (centres undefined) is listed with 8
# In MLL AF4-AF9 inh, COC(=O)C1(C(C[N+](=O)[O-])c2ccco2)C(=O)NCC1c1ccccc1 (centres undefined) is listed with 0.5
# In Vif A3G, CC(C)CC1C(=O)N(Cc2cn(Cc3ccco3)nn2)CCS(=O)(=O)N1Cc1ccc(-c2ccc(F)cc2)cc1 (centres undefined) is listed with 3%
# In MLL AF4-AF9 inh, O=C(CN1C(=O)C2CCCCC2C1=O)Nc1nccs1 (centres undefined) is listed with -1.5

# The list goes on.
SMILES,MLL AF4-AF9 inh,Ecoli rRNA inh,Ecoli rRNA inh OD600,Ecoli rRNA inh RFP,Ecoli growth,ALR inh,FGF22 binding,Vif A3G,HNF4A DNA FP
COc1cc2c(cc1OC)[C@H](C)N(C(=O)NCc1ccccc1)CC2,0.6,-7,-3,-0.7,0.64,-21,i,0%,-0.7
NC(=S)N/N=C/c1cc([N+](=O)[O-])ccc1OCCOc1ccccc1,x,x,x,x,x,-5,x,1%,1.0
COc1ccccc1NC(=O)CN1CCCCC1,x,x,x,x,0.69,-17,x,-1%,-1.3
Clc1ccc(Cn2ncc3c(NCc4ccccc4)ncnc32)c(Cl)c1,-4.4,x,x,x,0.69,-3,i,3%,x
O=C(NCC1CC1)[C@H]1[C@H](CO)[C@H]2Cn3c(ccc(-c4ccccc4F)c3=O)[C@@H]1N2Cc1ccccc1,-1.0,-2,-7,-2.0,x,x,i,x,x
CCn1c(SCC(=O)NC2CCCC2)nc2c(c1=O)SCC2,-0.8,x,x,x,x,x,i,x,6.0
Cc1ccc(S(=O)(=O)N2CCN(C)CC2)cc1C,-7.5,3,12,-0.5,0.68,-12,i,-6%,-0.8
O=C1NC(Cc2ccc(O)cc2)c2nc3ccccc3c(=O)n2-c2ccccc21 (centres undefined),-1.2,1,-9,3.1,x,19,i,x,x
COC(=O)Cn1cc(C(=O)OC)cc(Br)c1=O,x,x,x,x,0.7,-2,x,5%,-2.4
Cc1ccc2nc(N3C(=O)C(O)=C(C(=O)c4ccco4)C3c3cccc(O)c3)sc2c1 (centres undefined),4.1,-18,-48,3.4,x,71,i,x,5.2
COc1ccc(/C=C/C(=O)N(C)CC(=O)Nc2cccc(F)c2)cc1S(=O)(=O)N1CCCCC1,4.2,0,-10,-0.5,0.69,x,i,-3%,-0.7
O=C(C[C@@H]1CC[C@H]2[C@@H](COC[C@@H](O)CN2C(=O)Nc2cccc(Cl)c2)O1)N1CCCCC1,-4.0,-59,-77,-15,x,x,i,x,x

# 2 entries picked at random from the list so far:
SMILES,MLL AF4-AF9 inh,Ecoli rRNA inh,Ecoli rRNA inh OD600,Ecoli rRNA inh RFP,Ecoli growth,ALR inh,FGF22 binding,Vif A3G,HNF4A DNA FP
CC(C)CC1C(=O)N(Cc2cn(Cc3ccco3)nn2)CCS(=O)(=O)N1Cc1ccc(-c2ccc(F)cc2)cc1 (centres undefined),-0.5,-1,-4,8.6,x,x,i,3%,-1.2
O=C(C[C@@H]1CC[C@H]2[C@@H](COC[C@@H](O)CN2C(=O)Nc2cccc(Cl)c2)O1)N1CCCCC1,-4.0,-59,-77,-15,x,x,i,x,x

# Part of the list above with just HNF4A DNA FP, Ecoli rRNA inh OD600 and Vif A3G.
SMILES,HNF4A DNA FP,Ecoli rRNA inh OD600,Vif A3G
COc1ccccc1NC(=O)CN1CCCCC1,-1.3,x,-1%
Clc1ccc(Cn2ncc3c(NCc4ccccc4)ncnc32)c(Cl)c1,x,x,3%

# Next records follow:
SMILES,MLL AF4-AF9 inh,Ecoli rRNA inh,Ecoli rRNA inh OD600,Ecoli rRNA inh RFP,Ecoli growth,ALR inh,FGF22 binding,Vif A3G,HNF4A DNA FP
COc1ccc(N2CCOCC2)c(NC(=O)c2cc3ccccc3o2)c1,1.4,-1,5,2.2,0.66,2,i,x,-1.3
COc1ccc(COc2ccsc2C(=O)Nc2ccc(Cl)cc2)cc1,x,x,x,x,0.77,0,x,-9%,6.3
Cc1ccc(N(CC(=O)N2CCN(c3ccc(F)cc3)CC2)S(=O)(=O)c2c(C)noc2C)cc1,3.5,-11,-11,-3.1,0.65,0,x,x,-2.7
CC(C)N1CCN(c2ccncc2S(=O)(=O)N2CCN(C)CC2)CC1,-1.0,-1,5,1.0,x,x,i,-6%,2.3
C/C(=N\OCC(=O)OCC(=O)N(C)c1ccccc1)c1ccc2c(c1)OCO2,-0.7,-5,-6,3.4,x,-8,i,0%,-1.1
O=C(NCC1CCCO1)c1ccc2c(c1)ncn2-c1cccc(F)c1 (centres undefined),-0.7,2,-3,-1.2,0.68,3,i,u,-2.7
COc1cc(NC(=S)N2CCN(C/C=C/c3ccccc3)CC2)cc(OC)c1,x,x,x,x,0.69,1,x,x,0.9
O=C1NC(c2ccccc2)(C(F)(F)F)SC2=NCCCN12 (centres undefined),x,x,x,x,0.69,-6,x,23%,0.5
COC(=O)CCC(=O)NS(=O)(=O)c1ccc(N=NN2CCOCC2)cc1,-1.9,7,-3,-2.3,0.64,x,i,22%,0.0
C[C@@H]1CCCCO[C@H](CN(C)S(=O)(=O)c2cccs2)[C@@H](C)CN([C@H](C)CO)C(=O)c2cc(NC(=O)Nc3ccc(C(F)(F)F)cc3)ccc2O1,-0.6,4,7,1.3,x,x,i,x,x
CCCOc1ccc(/C=N/NC(=O)c2c(-c3ccccc3)noc2C)cc1OC,0.4,8,20,0.3,x,-2,i,4%,1.2
COc1c(Cl)cc(Cl)cc1CNCCO,-0.9,11,6,-0.9,0.69,x,i,-5%,-1.8
COc1ccccc1Nc1ncnc2ccc(C)cc12,x,x,x,x,0.74,-1,x,-4%,0.5
CC1Cc2ccccc2N1C(=O)COc1cccc(-n2cnnn2)c1 (centres undefined),x,x,x,x,0.66,-31,x,-1%,-0.7
COCC#Cc1cnc2c(c1)C(=O)N([C@H](C)CO)C[C@H](C)[C@@H](CN(C)C(=O)C1CCC1)O2,-3.4,3,7,-3.6,x,x,i,x,x
CC(NC(=O)CCCCCCN1C(=O)c2ccccc2C1=O)c1ccc2c(c1)CCCC2 (centres undefined),1.3,-6,5,9.5,0.68,-4,i,27%,2.4
COc1cccc(C=Nc2ccccc2C(=O)Nc2nccs2)c1OC,x,x,x,x,0.7,-2,x,1%,-1.5
O=C1NC[C@@H](CCCCN2C[C@H](Cc3ccccc3)N(CC3CCCCC3)C(=O)C2=O)N(CCc2ccc(O)cc2)C1=O,-3.1,-16,-21,3.9,x,x,i,x,-1.2
Cc1nn(CCC#N)c(N)c1C1(O)C(=O)Nc2c(Cl)cc(Cl)cc21 (centres undefined),u,-4,-5,0.1,0.62,-19,i,u,-0.9
O=C(O)CCNC(=O)/C(=C/c1ccco1)NC(=O)c1ccco1,-3.0,11,10,3.6,0.71,-12,i,x,-1.2
O=C(c1cccnc1)N1C[C@@H]2[C@H](c3ccccc31)[C@H](CO)N2C(=O)CN1CCOCC1,-2.6,5,7,-2.3,x,x,i,x,x
CCCc1c(C(=O)N/N=C/C=C/c2ccccc2)nnn1-c1nonc1N,1.0,2,12,-0.8,x,x,i,-3%,18
COc1cc2c(cc1OC)CN(CC(=O)Nc1ccc(C)c(C)c1)CC2,-8.1,-2,-9,-2.7,0.67,-3,i,5%,3.1
CCCC(C(=O)NC(C)(C)CC)N(CC1CCCO1)C(=O)CNS(=O)(=O)c1ccc(F)cc1 (centres undefined),-1.6,-1,12,-1.3,0.67,1,i,-1%,-0.7
O=C(c1nc2ncccn2n1)N1CCN(c2ccccc2)CC1,x,x,x,x,0.73,49,x,-8%,-0.1

# These rows are one share of the data; rates above refer to the full screens.
